Menin-MLL FL inh – menin-MLL binding inhibition, fluorescein peptide. Fluorescence polarization, fluorescein-MLL peptide displacement from menin. FP activity change, % at 61.4 µM. 290,000 tested, under 10 active. AID 1766; inconclusive = falling polarisation curve, or a change in total fluorescence; inactive = total fluorescence flat and polarisation flat or rising; no compound was filed as active; the % refers to the polarisation; negative = inhibition;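 also: % of control where 0% means no effect; inhibitors lower the polarisation; unlabelled MLL peptide was the positive control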
Sfp inh – blocks B. subtilis Sfp PPTase activity | Q9F4F7 | Biochemical Sfp PPTase activity, qHTS | Potency, µM, for inactives: max response, negative = inhibition, hits mostly inhibitors | 310,000 compounds, 3.5% hits; active = well fitted inhibition curve with a large enough effect; inconclusive = small, poorly fitted or top-dose-only effect, or another doubt; inactive = no such curve, though single readings can be large or run the other way;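 also: the enzyme is Sfp with the accession as filed and its product quenches rhodamine fluorescence; potency is read from the fitted curve at half-maximal effect; 0% = enzyme reaction without inhibitor and -100% = no enzyme wells; top concentration of the series not given in the record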
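Fluorescence-quenching assay with 15 nM Sfp, 5 uM rhodamine-CoA and 12.5 uM BHQ-2-labelled ybbR peptide in pH 7.6 Hepes/MgCl2 buffer. Enzyme was pre-incubated with compound for 15 min at room temperature. Rate was taken from the 30-min fluorescence change (525/598 nm).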
* = called active by the depositor; ? = inconclusive; nt = no result given; & = joins results of further samples; ! = not confirmed by another sample; [ ] = another dose, or the depositor's remark. This is a subset (hit frequency here may not be typical).

no.	compound	Menin-MLL FL inh	Sfp inh
1	CC(C)(O)C1O[C@H]2CC[C@@]3(C)[C@@](O)(CC[C@H]4Cc5c([nH]c6ccccc56)[C@@]43C)C2=CC1=O (stereo not given in full)	nt	-2%&2%&-12%
2	CC(N)(COP(=O)(O)Oc1ccccc1)C(=O)O (stereo not given)	nt	?
3	C[C@H](NC(=O)[C@@H](N)Cc1ccc(O)cc1)C(=O)N[C@@H](Cc1ccccc1)C(=O)NCC(=O)N[C@@H](Cc1ccc(O)cc1)C(=O)N1CCC[C@H]1C(=O)N[C@@H](CO)C(N)=O	nt	21%
4	CC(C)C[C@H](NC(=O)[C@H](Cc1ccccc1)NC(=O)CNC(=O)[C@H](CO)NC(=O)[C@@H](N)Cc1ccc(O)cc1)C(=O)N[C@H](C(=O)O)[C@H](C)O	nt	-6%
5	CN(CCCC(=O)c1cccnc1)N=O	nt	14%
6	O=C(/C=C/c1ccc(Cl)cc1)N[C@@]12CCC(=O)[C@@H]3Oc4c(O)ccc5c4[C@@]31CCN(CC1CC1)C2C5	nt	16%
7	O=C1/C(=C\c2ccccc2)C[C@@]2(O)[C@H]3Cc4ccc(O)c5c4[C@@]2(CCN3CC2CC2)[C@H]1O5	nt	?
8	Oc1ccc2c3c1O[C@H]1c4oc5ccccc5c4C[C@@]4(O)C(C2)N(CC2CC2)CC[C@]314	nt	9%
9	CC(C)[C@H](NC(=O)[C@H](CCC(=O)O)NC(=O)[C@H](Cc1ccccc1)NC(=O)[C@H](C)NC(=O)[C@@H](N)Cc1ccc(O)cc1)C(=O)N[C@H](C(=O)NCC(N)=O)C(C)C	nt	-24%
10	CN1CC[C@@]2(C)c3cc(OC(=O)Nc4ccccc4)ccc3N(C)[C@@H]12	nt	14%
11	O=C1NC(=O)c2c1c1c3ccccc3n3c1c1c2c2ccccc2n1C1CCC3O1	nt	2%
12	COc1cccc2c1C13CC[N+]4(CC5CC5)CO[C@]1(CCC(=O)C3)C4C2	nt	21%
13	C(=C\c1ccccc1)/CN1CCN(CCOC(c2ccccc2)c2ccccc2)CC1	nt	56µM*
14	OC12C3C4CC5C6C4C1C6C(C53)N2CCc1cccc(F)c1 (stereo not given)	nt	7%
15	C[C@]12CC[C@H]3[C@@H](C[C@H](F)C4=CC(=O)CC[C@@]43C)[C@@H]1CC[C@@H]2O	nt	-7%
16	Oc1cc2c(cc1O)[C@H]1c3ccccc3CNC1CC2 (stereo not given in full)	6.8	nt
17	C[C@@H]1O[C@H](C[N+](C)(C)C)CS1	-2.8	nt
18	COc1ccc2c(c1O)-c1cccc3c1C(C2)N(C)CC3 (stereo not given)	1.4	nt
19	CN1CCC23CCCC[C@H]2C1Cc1ccc(O)cc13 (stereo not given in full)	4.4	nt
20	Nc1ncnc2c1ncn2[C@@H]1O[C@H](COP(=O)(O)CP(=O)(O)OP(=O)(O)O)[C@H](O)[C@H]1O	2.4	nt
21	C[C@@H]1O[C@H](C[N+](C)(C)C)C[C@H]1O	1.5	nt
22	NC(Cn1ccc(=O)[nH]c1=O)C(=O)O (stereo not given)	-2.0	nt
23	CC(=O)NBr	-0.3	nt
24	Cn1cc(C(=O)C(=O)N[C@H]2CN3CCC2CC3)c2ccccc21	14	56µM*!
25	COC(=O)[C@]1(C)CC[C@@]2(C)CC[C@@]3(C)C4=CC=C5C(=CC(=O)C(O)=C5C)[C@@]4(C)CC[C@@]3(C)C2C1 (stereo not given in full)	4.6	-85%
26	O=C(N/N=C/c1ccc([N+](=O)[O-])o1)c1cc([N+](=O)[O-])cc([N+](=O)[O-])c1O	-0.9	-17%
27	CC(CO)NC(=O)C1C=C2c3cccc4[nH]cc(c34)C[C@H]2N(C)C1 (stereo not given in full)	2.2	23%
28	COc1ccc(NC(=O)N2CCCC3(CCN(C(=O)Oc4ccccc4)CC3)C2)cc1	6.0	27%
29	CN1[C@H]2CC(=O)C[C@@H]1[C@@H](O)C2	-1.4[24.8 µM]	?
30	CN1CC[C@@]2(c3cccc(O)c3)Cc3nc4ccccc4cc3C[C@H]2C1	-7.8	79µM*
31	C[C@]12O[C@H](C[C@@]1(O)C(=O)O)n1c3ccccc3c3c4c(c5c6ccccc6n2c5c31)CNC4=O	3.4	-2%
32	CC(=O)OC1C[C@@]2(C)C(c3ccoc3)C[C@H]3O[C@@]32[C@@]2(C)C(=O)C(O)=C3C(C)(C)C(=O)C=C[C@]3(C)C12 (stereo not given in full)	-0.9	-3%
33	C[C@@]12CC[C@H](O)C[C@@H]1CC[C@H]1[C@@H]2C[C@@H](O)[C@]2(C)[C@@H](C3=CC(=O)OC3)CC[C@]12O	-2.1[24.8 µM]	-5%
34	CCCCC/C=C\C/C=C\C/C=C\C/C=C\CCCC(=O)NC(C)C(=O)O (stereo not given)	-6.3	2%
35	CCCCCCCCc1[se]c2ccccc2c1Br	1.4	14%
36	CC(=O)OC[C@H](N)C(=O)c1ccccc1	-0.2	-1%
37	O=C(Oc1ccccc1)N1CCC[C@@]2(CCN(Cc3ccccc3)C2)C1	-3.3	7%
38	Fc1ccc(C(OCCN2CCN(CCCc3ccccc3)CC2)c2ccc(F)cc2)cc1	3.8	12%
39	O=C(c1ccco1)N1CCC[C@@]2(CCN(Cc3ccncc3)C2)C1	-7.4	?
40	C[C@@H]1O[C@@H](O[C@H]2CC[C@]3(C=O)C4CC[C@]5(C)[C@@H](C6=CC(=O)OC6)CC[C@]5(O)[C@@H]4CC[C@]3(O)C2)[C@H](O)[C@H](O)[C@H]1O (stereo not given in full)	-0.2	4%

Other structures
Values run as follows: Menin-MLL FL inh	Sfp inh
#41 COCC#CCN1CCCCC1c1cccnc1 (stereo not given)
    -1.0	11%
#42 COC(C(=O)C(O)C(C)O)C1Cc2cc3cc(OC4CC(OC5CC(O)C(OC)C(C)O5)C(OC(C)=O)C(C)O4)c(C)c(O)c3c(O)c2C(=O)C1OC1CC(OC2CC(OC3CC(C)(O)C(OC(C)=O)C(C)O3)C(O)C(C)O2)C(O)C(C)O1 (stereo not given)
    ?	7%
#43 CCCCC/C=C\C/C=C\CCCCCCCCCC(=O)NCCO
    -7.7	-2%
#44 CCOC(=S)SSC(=S)OCC
    -3.1	5.6µM*
#45 CC[C@H](Oc1ccc(Cl)cc1)C(=O)OC1C[C@H]2CC[C@@H](C1)N2C (stereo not given in full)
    11	-1%
#46 COc1c2c(cc3c1OCO3)C13C=CC(OC)CC1N(C2)CC3O (stereo not given)
    -3.8	-10%
#47 NC[C@H](CP(=O)(O)O)c1ccc(Cl)cc1
    22	-2%
#48 CC(C)CN1CC2(CCN(C(=O)Oc3ccccc3)CC2)C1
    -5.8	-6%
#49 CC(C)CCNC(=O)CNC(=O)[C@@H](C)NC(=O)[C@@H](N)Cc1ccc(O)cc1
    0.3	2%
#50 O=C(NC1CCCCC1)c1cn(CCN2CCOCC2)c2cc(Cl)ccc2c1=O
    3.6	3%

Overlap with the part before: 4 compounds, then new ones.
Values run as follows: Menin-MLL FL inh	Sfp inh
#47 NC[C@H](CP(=O)(O)O)c1ccc(Cl)cc1
    22	-2%
#48 CC(C)CN1CC2(CCN(C(=O)Oc3ccccc3)CC2)C1
    -5.8	-6%
#49 CC(C)CCNC(=O)CNC(=O)[C@@H](C)NC(=O)[C@@H](N)Cc1ccc(O)cc1
    0.3	2%
#50 O=C(NC1CCCCC1)c1cn(CCN2CCOCC2)c2cc(Cl)ccc2c1=O
    3.6	3%
#51 C[C@]12CC[C@H]3[C@@H](CC[C@@]45O[C@@H]4C(=O)C(C#N)C[C@]35C)[C@@H]1CC[C@@H]2O (stereo not given in full)
    2.9	26%
#52 O=C1OC(c2cc(I)c(O)c(I)c2)(c2cc(I)c(O)c(I)c2)c2ccccc21
    ?	40µM*
#53 O=C(Nc1ccccc1)N1CC[C@@]2(CCCNC2)C1
    -3.3	?
#54 CCCC[N+]12C3CC(C(CC)[C@H]1O)[C@@H]1C(O)C4(C[C@@H]12)c1ccccc1N(C)C34 (stereo not given in full)
    -5.0	1%
#55 CC1OC(O[C@H]2C[C@@H](O)[C@]3(CO)[C@@H]4C(CC[C@]3(O)C2)[C@@]2(O)CC[C@H](C3=CC(=O)OC3)[C@@]2(C)C[C@H]4O)C(O)C(O)C1O (stereo not given in full)
    -2.6	12%
#56 O=C(Nc1ccccc1-c1ccc(Cl)cc1)c1cccnc1Cl
    -24	14%
#57 C[C@@]12CC[C@H]3[C@@H](CC[C@]4(O)C[C@H](O)CC[C@@]34C=O)[C@]1(O)CC[C@@H]2C1=CC(=O)OC1
    3.2[24.8 µM]	18%
#58 CC(C)(O)[C@@H]1C2OC(=O)[C@@H]1[C@]1(O)C[C@H]3O[C@]34C(=O)O[C@H]2[C@]14C
    -9.7	13%
#59 N[C@H](CCCCCP(=O)(O)O)C(=O)O
    -1.7&20&34	10%&5%
#60 CCN1C[C@]2(C)CCC(OC)[C@@]34C5C[C@@H]6CC[C@@](O)(C5C(=O)O6)[C@@H](C(O)C23)[C@@H]14 (stereo not given in full)
    -1.8	0%
#61 C[C@@H]1OC=C2[C@@H](O)[C@H]3O[C@H]3C(=O)[C@@]23[C@H]1[C@H]1C2=C([C@@H](O)[C@H]4O[C@@H]4C2=O)[C@@H]3O[C@@H]1C
    5.9[11.7 µM]	23%
#62 O=C1C=C2C=C[C@H]3C[C@@]2(O1)[C@H]1CCCCN31
    0.3[24.8 µM]	-8%
#63 CCCc1cc2c(n1Cc1ccco1)C(C)C1CN(C(=O)c3ccccc3)C(C)(C(=O)OC)C21 (stereo not given)
    ?	32µM*
#64 CC(=O)Oc1ccc2c3c1OC1[C@@H](OC(C)=O)C=C[C@H]4[C@H](C2)N(C)CC[C@]314 (stereo not given in full)
    -0.1	25%
#65 CC(C)C[C@H]1C(=O)N2CCC[C@@H]2[C@@]2(O)O[C@](NC(=O)[C@@H]3C=C4c5cccc6[nH]cc(c56)C[C@@H]4N(C)C3)(C(C)C)C(=O)N12
    ?	-17%
#66 NC(N)=Nc1ccc2[nH]c3c(c2c1)C[C@]1(O)[C@@H]2Cc4ccc(O)c5c4[C@]1(CCN2CC1CC1)[C@@H]3O5
    ?	-22%
#67 CNC(=O)Oc1cccc2c1OC(C)(C)C2
    -6.8	16%
#68 CCOP(=S)(OCC)Oc1cc(C)nc(N(CC)CC)n1
    -1.6	-20%
#69 CC(C)CCCC1(C)C=Cc2c(O)c3c(c(CCC(C)C)c2O1)OC12C(CC4CC1C(C)(C)OC2(CCC(C)C(=O)O)C4O)C3=O (stereo not given)
    -1.4	-6%
#70 CCCCC/C=C\C/C=C\C/C=C\CCCCC(=O)NCCO
    -0.2	2%
#71 CSCC[C@H](NC(=O)[C@@H](NC(=O)CNC(=O)[C@H](CC(=O)O)NC(=O)[C@H](CCSC)NC(=O)[C@@H](N)Cc1ccc(O)cc1)[C@@H](C)O)C(=O)N[C@@H](CO)C(=O)N[C@@H](CCC(N)=O)C(=O)N[C@H](C(=O)O)C(C)C
    2.0	2%
#72 Oc1ccc2[nH]cc(CCCCN3CC=C(c4ccccc4)CC3)c2c1
    -5.2	4%
#73 C=C(C)[C@H]1Cc2c(ccc3c2O[C@@H]2COc4cc(OC)c(OC)cc4[C@@H]2C3=O)O1
    5.5&-3.0&4.9	-10%&10%
#74 CN(C)C(=O)Nc1ccc(-n2nc(C(C)(C)C)oc2=O)c(Cl)c1
    ?	7%
#75 CC(Cc1ccccc1)N(C)C (stereo not given)
    -2.4	20%
#76 CNC(=O)OCC[N+](C)(C)C
    0.2	-4%
#77 COC(C)C(O)(C(=O)OC1=CCN2CC[C@H](O)[C@H]12)C(C)C (stereo not given in full)
    ?	8%
#78 O=C(Nc1ccccc1)N1CCC2(CC1)CCN(C(=O)Oc1ccccc1)CC2
    -0.4	-1%
#79 CC(C)(C)NC[C@H](O)c1cc(Cl)c(N)c(Cl)c1
    -5.3[24.8 µM]	5%
#80 BrC1C(Br)C(Br)C(Br)C(Br)C1Br (stereo not given)
    1.8	79µM*
#81 C=CCN1CC[C@]23c4c5ccc(O)c4O[C@H]2[C@@H](O)C=C[C@H]3[C@H]1C5
    -1.0	-17%
#82 CCN(CC)CCCCN1c2ccccc2Oc2ccc(Cl)cc21
    -4.2	-20%
#83 CC1CC(O)[C@]2(O)[C@]13CC(=O)OC[C@@]2(C)[C@@](C)(O)C(=O)C3 (stereo not given in full)
    0.6	4%
#84 O=C(c1ccco1)N1CCC2(CC1)CN(Cc1ccncc1)C2
    -5.0	-3%
#85 Oc1ccc2c3c1O[C@H]1c4oc5ccccc5c4C[C@]4(O)[C@H](C2)N(CC2CC2)CC[C@@]314
    -3.2	-1%
#86 COCC(C)N(C(=O)CCl)c1c(C)csc1C (stereo not given)
    4.6	-1%
#87 COc1cc2c(cc1O)C(CCc1ccc(Cl)cc1)N(C)CC2 (stereo not given)
    -0.6	8%
#88 NCC(O)c1cccc(O)c1 (stereo not given)
    1.1	9%
#89 C[C@@H](N)[C@@H](O)c1ccc(O)c(O)c1
    -3.8	56µM*
#90 Cc1[nH]c2ccc(Cl)cc2c1C1=CCNCC1
    2.7	4%
#91 CC(C)(C)[C@]1(O)C[C@@H]2OC(=O)CC23C(=O)O[C@@H]2OC(=O)[C@H](O)C231 (stereo not given in full)
    -0.9	15%
#92 O=C1c2ccccc2C(=O)C1C(=O)C(c1ccccc1)c1ccccc1
    -0.4	?
#93 C/C(=C\C=C/[C@@H](C)C(=O)O)[C@H]1CN[C@H](C(=O)O)[C@@H]1CC(=O)O
    ?	63µM*
#94 Fc1ccc(C(OCCN2CCN(C/C=C\c3ccccc3)CC2)c2ccc(F)cc2)cc1
    -21	89µM*
#95 CNCC(N)C(=O)O (stereo not given)
    -1.9	?
